CBX7 inh: CBX7 chromodomain binding inhibitors, primary screen, biochemical, AlphaScreen; Chromobox protein homolog 7 (Homo sapiens), O95931; AlphaScreen His6-CBX7 / biotin-H3K27me3 peptide binding; hits give low values; normalised signal (fraction of DMSO) (test concentration not listed); actives 1.1% (n = 66,000); AID 1224903, 2016; in the data active = normalised signal below about 0.5;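 also: 100 nL library stock added to about 20 µL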
Target sequence (O95931 whole entry, looked up): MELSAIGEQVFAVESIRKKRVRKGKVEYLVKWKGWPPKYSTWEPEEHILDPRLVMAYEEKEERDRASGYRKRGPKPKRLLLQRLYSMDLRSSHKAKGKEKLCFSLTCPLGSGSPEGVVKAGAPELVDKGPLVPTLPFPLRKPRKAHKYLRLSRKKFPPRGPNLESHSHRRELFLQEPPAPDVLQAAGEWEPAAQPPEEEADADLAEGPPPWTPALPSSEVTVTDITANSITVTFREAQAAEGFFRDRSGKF
CBX7 inh z-score: also measured in CBX7 inh; calls as there; z-score; measured here: z-score of CBX7 signal; some inactives read as strong as hits; reference of the scale not given here;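 same signal on another scale; lower means less binding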
The depositor's hits bear a star; & = joins results of further samples. Some of the compounds tested. The share of hits here may be higher or lower than overall.

Preview (2 entries):
nr	mol	CBX7 inh z-score	CBX7 inh
1	CC1CCN(S(=O)(=O)c2ccc3c(c2)N(CC(=O)NCc2cccs2)C(=O)CS3)CC1	0.91	1.1
2	COc1ccc(N2CCN(CCCNC(=O)Nc3ccccc3OC)CC2)cc1	-0.56	0.93

This part in full (from the top)
nr	mol	CBX7 inh z-score	CBX7 inh
1	CC1CCN(S(=O)(=O)c2ccc3c(c2)N(CC(=O)NCc2cccs2)C(=O)CS3)CC1	0.91	1.1
2	COc1ccc(N2CCN(CCCNC(=O)Nc3ccccc3OC)CC2)cc1	-0.56	0.93
3	Cc1ccc2nc(-c3c[nH]c4ccccc34)c(Nc3ccccc3)n2c1	-3.4	0.87
4	CCCCCn1c(CNC(C)=O)nc2ccccc21	2.8	1.3
5	COc1ccc(C(=O)Nc2c(-c3cccs3)nc3ccccn23)c(OC)c1	-2.3	0.92
6	COCCCNC(=O)Cn1cnc2sc(C)c(S(=O)(=O)N3CC(C)CC(C)C3)c2c1=O (stereo not given)	1.9	1.1
7	O=C(O)C1CCCN(c2nnc(-n3cccc3)s2)C1 (stereo not given)	0.13	1
8	CC1CCN(S(=O)(=O)c2ccc3c(c2)CCN3C(=O)C2CCC2)CC1	0.0074	1
9	Cc1ccc2[nH]c(C)c(CN(C)C3CCCCC3)c(=O)c2c1	2.7	1.1
10	CC1CCCN(Cc2c(O)ccc3cc(-c4nc5ccccc5[nH]4)c(=O)oc23)C1 (stereo not given)	-0.7	0.82
11	CCOC(=O)N1CCC(NC(=O)c2ccc3c(c2)N(Cc2ccc(F)cc2)CCS3)CC1	-0.38	0.71
12	O=C1CC(c2nc3ccccc3n2Cc2ccccc2F)CN1c1ccccc1F (stereo not given)	-0.5	0.93
13	COC(=O)c1cc2sccc2n1Cc1ccc(Cl)cc1	4.8	1.2
14	Cc1ccc(Nc2c(-c3ccccc3Cl)nc3ccc(Br)cn23)cc1	0.029	1
15	O=C(Nc1ccc(Cc2ccncc2)cc1)c1ncn[nH]1	-28*	0.058*
16	Cc1ccc(N2CC(c3nc4ccccc4[nH]3)CC2=O)cc1C (stereo not given)	-0.32	0.99
17	CCOC(=O)N1CCC(N2Cc3cccc(C(=O)NCc4ccc(OC)cc4)c3C2=O)CC1	0.19	1
18	O=C1c2nccnc2C(=O)N1c1ccc(Cl)cc1	0.62	1
19	Cc1ccccc1-c1nc(CN2CCC(C(=O)NCc3ccc(Cl)cc3)CC2)c(C)o1	0.031	1
20	Cc1ccc(S(N)(=O)=O)cc1NC(=O)c1c(-c2c(Cl)cccc2Cl)noc1C	0.0093	1
21	O=C(NCc1cccnc1)c1ccc2c(c1)N(Cc1ccccc1F)C(=O)c1ccccc1S2	-0.73	0.97
22	Cn1cc(C(=O)O)c(=O)c2cc(S(=O)(=O)N3CCOCC3)ccc21	0.029	1
23	COc1ccc(C)cc1N(C)C(=O)Cc1c(C(=O)O)[nH]c2ccccc12	0.35	1
24	O=C(Nc1cccs1)Nc1cc(C(F)(F)F)ccc1Cl	2.3	1.1
25	COCCCNC(=O)c1ccc2nc(-c3ccc(F)cc3)c(-c3ccc(F)cc3)nc2c1	-0.17	0.83
26	Cc1c(C(=O)NCCc2ccccc2)oc2ccc(S(=O)(=O)N3CC(C)CC(C)C3)cc12 (stereo not given)	-0.82	0.92
27	O=C(Nc1ccccc1-c1nc2ccccc2[nH]1)c1ccccc1Br	-2.1	0.85
28	Cc1cccc(NS(=O)(=O)c2cc(Br)cc3c2N(C(=O)C2CC2)CC3)c1C	-1.1	0.98
29	COc1ccccc1C(=O)Nc1nc2ccc(S(C)(=O)=O)cc2s1	0.67	1
30	CCC(C)Sc1oc(-c2cccs2)nc1S(=O)(=O)c1ccc(C)cc1 (stereo not given)	-0.13	0.92
31	CCC1=Nc2cc(C(=O)NCCCN3C(C)CCCC3C)ccc2Sc2ccccc21 (stereo not given)	4.5	1.4
32	CCn1c(C(=O)N2CCC(C(=O)N3CCc4ccccc4C3)CC2)cc2sccc21	-1.6	0.64
33	CC(O)Cn1c(=N)n(Cc2ccccc2)c2ccccc21 (stereo not given)	0.11	1
34	COc1ccc(NC2c3ccccc3C(=O)N2Cc2ccccc2Cl)cc1OC (stereo not given)	-0.2	0.8
35	CC1CCCC(C)N1CCCNC(=O)c1cnn(-c2ccccc2)c1-n1cccc1 (stereo not given)	0.78	1
36	COc1ccc(-c2nnc(Nc3cccc(C(F)(F)F)c3)c3ccccc23)cc1	-2.3	0.8
37	Cc1ccn2c(-c3csc(Nc4ccc(C(=O)O)cc4)n3)c(C)nc2c1	0.015&0.079	1&1.1
38	c1ccc(-c2nc3ccccn3c2Nc2ccc3c(c2)OCCO3)nc1	-8.9*	0.073*
39	CCOc1ccc(-c2nn3c(Cc4ccccc4)nnc3s2)cc1	0.87	1
40	Cc1cccc(N2CCN(CCNC(=O)c3ccc4c(c3)NC(=O)c3ccccc3S4)CC2)c1C	1.2	1.2
41	CCOc1ccc(-n2c(=O)cc(N3CCN(c4ccccc4F)CC3)[nH]c2=O)cc1	-1.5	0.92
42	CCC(=O)N1CCc2cc(S(=O)(=O)N(CC(C)C)CC(C)C)ccc21	0.16	1
43	CCc1sc(NC(=O)c2c(-c3ccccc3)noc2C)nc1-c1ccccc1	1.4	1.1
44	Cc1ccc(NC(=O)c2cc(C)nn2-c2ccccc2)cc1	0.14	1
45	Cc1ccc(CC2CC(=O)N(c3ccc4ccccc4n3)C2=O)cc1 (stereo not given)	1.3	1.1
46	CCOCCCN(C(=O)Nc1ccc(Cl)cc1)C1CCN(C(C)=O)CC1	-0.076	1
47	CCCc1cc(C(=O)NCCc2ccc(OC)c(OC)c2)no1	1	1
48	COc1cc2c(C(=O)N(C)c3ccc(C(C)C)cc3)cn(CC(C)C)c(=O)c2cc1OC	0.99	1.1
49	CCCNC(=O)Cn1cnc2sc(C(=O)NCc3ccc(F)cc3)c(C)c2c1=O	-0.31	0.99
50	O=C(c1cc(-c2ccccc2O)on1)N1CCCCCC1	-0.82	0.98
51	COc1cc(CNC(C)(C)CO)ccc1OCc1ccccc1Cl	2.1	1.1
52	COc1ccc(-c2nc(-c3ccc(O)cc3)[nH]c2-c2ccccc2)cc1OC	-3.8	0.85
53	CCc1cccc(NC(=O)CCC(=O)Nc2cnc(N3CCN(C)CC3)cc2C)c1	-0.045	1
54	CC(=O)Oc1ccc(C(=O)Nc2cc(-c3nc4ccccc4[nH]3)ccc2C)cc1	-0.45	0.96
55	Cc1cc(NC(=O)c2cnn(-c3ccccc3)c2C2CCNCC2)ccc1Br	0.59	1
56	COc1ccc(CN(C(=O)c2ccccc2)C2CCS(=O)(=O)C2)cc1 (stereo not given)	0.063	1.1
57	Clc1ccc(-c2cnc(-c3ccncc3)o2)cc1	0.51	1.1
58	COC(=O)Cc1nc(N2CCN(c3ccccc3)CC2)c2c(C)c(C)sc2n1	-2.1	0.94
59	O=C(Cc1ccc(NC2=NC3CS(=O)(=O)CC3S2)cc1)N1CCCC1 (stereo not given)	0.35	1
60	COc1cc(NC(=O)CSc2nc3nc(C)c(Cc4ccc(C)cc4)c(C)n3n2)cc(OC)c1	-2.4	0.78

Some of these compounds in order of SMILES length, high to low:
nr	mol	CBX7 inh z-score	CBX7 inh
48	COc1cc2c(C(=O)N(C)c3ccc(C(C)C)cc3)cn(CC(C)C)c(=O)c2cc1OC	0.99	1.1
52	COc1ccc(-c2nc(-c3ccc(O)cc3)[nH]c2-c2ccccc2)cc1OC	-3.8	0.85
55	Cc1cc(NC(=O)c2cnn(-c3ccccc3)c2C2CCNCC2)ccc1Br	0.59	1
56	COc1ccc(CN(C(=O)c2ccccc2)C2CCS(=O)(=O)C2)cc1 (stereo not given)	0.063	1.1
50	O=C(c1cc(-c2ccccc2O)on1)N1CCCCCC1	-0.82	0.98

Continued:
nr	mol	CBX7 inh z-score	CBX7 inh
61	O=C(COc1ccc2oc3c(c2c1)CCCC3)Nc1ccc(Br)cc1	0.25	1
62	Cc1cccc(C)c1NC(=O)C1=CCN(S(=O)(=O)c2ccc(Br)cc2)CC1	0.78	1
63	Cc1cc(C)nc(Nc2n[nH]c(Cc3ccccc3)n2)n1	1.7	1
64	O=C(NCCN1CCCCCC1)C1CC(=O)N(CCc2ccccc2)C1 (stereo not given)	-0.008	1
65	O=C(Nc1ccc(Br)cc1)c1cc(-c2ccc(Cl)cc2)on1	0.044	1
66	CCOC(=O)CNC(=O)c1sc2ncn(CC(=O)Nc3ccc(C)c(Cl)c3)c(=O)c2c1C	-0.071	0.99
67	O=C(O)c1nccnc1C(=O)Nc1ccc(Cl)cc1	-3.2	0.75
68	Cc1ccc(-c2cc(C(=O)NCCN(C)Cc3ccccc3)c3ccccc3n2)cc1C	-1.1	0.9
69	Fc1ccc(-c2sc(Nc3ccccc3)nc2C(F)(F)F)cc1	4.6	1.2
70	CCOC(=O)Cc1nnc2c(Nc3ccccc3C)nc3nonc3n12	0.91	1.1
71	CC1(C)Cc2ccccc2-c2nc3ccccc3c(=O)n21	0.49	1
72	CCc1ccc(Nc2cc(C(=O)NCc3ccc(F)cc3)c3ccccc3n2)cc1	-0.29	0.99
73	CCCCCC(=O)Nc1cccc(-c2nc3cc(C)c(C)cc3o2)c1C	0.078	1
74	O=C(Nc1cccc(Cl)c1)c1cnc(N2CCN(c3ncccn3)CC2)c2ccccc12	1.5	1.2
75	Cc1ccc(C(O)(c2ccccc2)c2nc3ccccc3n2C)cc1 (stereo not given)	0.066	1
76	O=C(NCCCN1CCCC1)c1ccc2c(c1)ncn2C1CCCC1	0.38	1
77	CCN(CC)C(=O)c1c[nH]c2ccc(S(=O)(=O)Nc3ccc4c(c3)OCCO4)cc2c1=O	-2.1	0.89
78	COCc1nnc(NC(=O)c2ccc(S(=O)(=O)N(C)Cc3ccccc3)cc2)o1	-4.3	0.88
79	COc1ccccc1N1CCN(CC(O)COc2cc(C)cc(C)c2)CC1 (stereo not given)	-1.5	0.95
80	COc1ccc(CCNC(=O)CCC(=O)Nc2ccc3nc(N4CCCCC4)cc(C)c3c2)cc1OC	-0.033	1
81	O=C(NCCCN1CCN(Cc2ccccc2)CC1)c1ccc2nc(N3CCOCC3)sc2c1	4.7	1.5
82	CC1CN(C(=O)c2ccccc2C(=O)c2ncc[nH]2)CC(C)O1 (stereo not given)	0.23	1
83	Cc1ccc2nc(NC(=O)CSc3nc4ccccc4[nH]3)sc2c1	-1.2	0.96
84	Cc1ccc(-c2nc3ncccn3c2Nc2ccc(Cl)cc2)cc1	-0.017	1
85	O=C(CN1C(=O)CC(c2ccccc2)Sc2ccccc21)Nc1ccc(F)cc1F (stereo not given)	1.5	1.1
86	c1cncc(-c2nc(N3CCCCCC3)c3ccccc3n2)c1	-0.86	0.97
87	CCN(CC)S(=O)(=O)c1ccc(C(=O)Nc2nc3c(F)cc(F)cc3s2)cc1	-1.9	0.88
88	COC(CNC(=O)CCc1c(C)nc2cc(-c3cccc(F)c3)nn2c1C)OC	-0.15	0.99
89	O=C1Cc2cc(S(=O)(=O)NCc3ccccc3)ccc2N1	1.5	1.1
90	COCCNC(=O)CS(=O)(=O)Cc1nc(-c2cccc(Cl)c2)oc1C	-1.2	0.98

Some of the entries so far, screen by screen:
80	COc1ccc(CCNC(=O)CCC(=O)Nc2ccc3nc(N4CCCCC4)cc(C)c3c2)cc1OC
86	c1cncc(-c2nc(N3CCCCCC3)c3ccccc3n2)c1
77	CCN(CC)C(=O)c1c[nH]c2ccc(S(=O)(=O)Nc3ccc4c(c3)OCCO4)cc2c1=O
85	O=C(CN1C(=O)CC(c2ccccc2)Sc2ccccc21)Nc1ccc(F)cc1F (stereo not given)
assay / compound	80	86	77	85
CBX7 inh z-score	-0.033	-0.86	-2.1	1.5
CBX7 inh	1	0.97	0.89	1.1

Individual results from the entries so far.
In CBX7 inh, entry 90 reads 0.98
In CBX7 inh z-score, entry 81 reads 4.7
In CBX7 inh z-score, entry 80 reads -0.033

More compounds follow.
nr	mol	CBX7 inh z-score	CBX7 inh
91	COc1ccc(-c2noc(CCC(=O)NCc3ccccc3OC)n2)cc1	1.3	1
92	Cc1ccc2c(c1)NC(=O)C(CC(=O)NCc1cccs1)O2 (stereo not given)	1.9	1
93	COc1ccc(OCC(O)CN2CCCCC2)cc1 (stereo not given)	0.57	1
94	Cc1nnc2ccc(N3CCC(C(N)=O)(N4CCCCC4)CC3)nn12	-0.76	0.97
95	CCN(CC)c1ccc(NC(=O)C2CCN(S(=O)(=O)c3cnc[nH]3)CC2)c(C)c1	-2	0.87
96	Cc1ccc(C)c(CN2C(=O)CSc3ccc(C(=O)NC4CCCC4)cc32)c1	-3	0.77
97	Cc1cccc(C)c1Nc1c(-c2ccccc2)nc2cnccn12	2.4	1.2
98	COc1cccc(-c2cc(C(=O)NC(C)C)no2)c1	0.62	1.1
99	NC(=O)c1c(NC(=O)c2cc(-c3cccc(Cl)c3)on2)sc2c1CCCC2	1.5	1.2
100	O=C(CCc1nc(-c2ccccc2F)no1)N1CCN(c2ccccc2F)CC1	0.73	1
101	CCc1ccc(NC(=O)Cn2cc(S(=O)(=O)c3ccc(C)cc3)c(=O)c3ccccc32)cc1	0.84	1.1
102	Cc1c2c(nc3c(C(=O)NCc4ccccc4Cl)cnn13)CCCC2	-0.078	1
103	Clc1ccc2nc(-c3ccsc3)c(Nc3ccc4c(c3)OCCO4)n2c1	-0.075	0.95
104	CC1CCN(Cc2ccc(NC(=O)Cn3ncc4c3-c3ccccc3OC4)cc2)CC1	-1.4	0.92
105	CC1CCc2c(sc(NC(=O)c3ccccc3)c2C(=O)N2CCOCC2)C1 (stereo not given)	1	1.1
106	COc1ccc(/C=C\c2onc(C)c2S(=O)(=O)N2CCC(C(=O)N3CCOCC3)CC2)cc1	-0.17	0.98
107	COC(=O)c1cc2occc2n1Cc1nc(-c2ccc(OC)c(OC)c2)oc1C	-0.016	1
108	CCc1ccccc1NC(=O)CN(c1ccc(OC)cc1)S(=O)(=O)c1c(C)nn(C)c1C	0.9	1.1
109	CC(NC(=O)c1cc2sc(Cl)cc2n1C)c1ccccc1 (stereo not given)	0.1	1
110	Cc1cc(=O)n2nc(N3CCCC(C(=O)NCc4cccc(Br)c4)C3)sc2n1 (stereo not given)	1.5	1.2
111	CC1CCN(S(=O)(=O)c2ccc(F)c(C(=O)Nc3ccc(Br)cc3)c2)CC1	0.82	1.1
